Bioassay records (PubChem)
ALR inh = inhibitors of human ALR sulfhydryl oxidase, primary screen, biochemical, H2O2 detection, HRP-luminol luminescence, single point; FAD-linked sulfhydryl oxidase ALR (Homo sapiens), P55789; purified ALR, DTT oxidation; inhibition, % (no concentration beside the values); 3.8% of 290,000 active; AID 485317, 2010;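 active = mean and each replicate at 75% or more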;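 note: stock transfer was 7.5 nL into about 7.5 µL; 0% = neutral wells and 100% = wells with inactivated enzyme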
UCH37 DUB inh = inhibitors of human UCH37 deubiquitinase, primary screen, biochemical, Ub-AMC cleavage, fluorescence. Ubiquitin carboxyl-terminal hydrolase isozyme L5 (Homo sapiens), Q9Y5K5. purified proteasome/UCH37. inhibition, % (concentration not given with the values). 0.33% of 330,000 active. AID 588478, 2011;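 active = mean of two replicates above 20%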;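 note: 0% = compound-free wells with enzyme and 100% = wells lacking proteasome; stock transfer was 100 nL into about 20 µL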
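Material: human UCH37 enzyme supplied as purified proteasome complex. Measure: % inhibition of Ub-AMC cleavage fluorescence. Medium: pH 7.4 Tris-HCl (50 mM) with ovalbumin, ATP-MgCl2, DTT. Times: 30 min preincubation with enzyme, 25 min cleavage at room temperature. Detection: AMC fluorescence intensity at 355/460 nm.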
Ecoli rRNA inh = reduced GFP signal of wild-type E. coli, primary screen, bacterial rRNA inhibitor project, GFP/RFP fluorescence, OD600, single point. E. coli WT GFP vs humanized-ribosome RFP mutants, 24 h; hits give low values; DMSO median 0, no signal -100. GFP signal change (wild-type ribosome), % (no concentration beside the values). 1.6% of 350,000 active. AID 720706, 2013;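 active = significant combined selectivity score with lowered wild-type GFP, culture density cut under 30%, mutant RFP and density less affected; inactive = any of these conditions unmet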; note: one replicate is shown; some compounds called inactive have numbers as strong as hits
Ecoli growth = E. coli growth inhibition, primary screen, OD600 | Escherichia coli growth, 23 h; hits give low values | AID 1053175, 2014 | 0.21% of 330,000 active | OD600 absorbance (test concentration not listed);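 active = OD600 absorbance below the run mean of sample wells minus 3.6 SD, in any replicate, cut at about 0.56 in these data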;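 note: stock transfer was 300 nL into about 60 µL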
FGF22 binding = binders of human FGF22 protein, primary screen, FGF22 synaptogenesis inhibitor project, biophysical, thermal shift, single point; Fibroblast growth factor 22 (Homo sapiens), Q9HCT0; recombinant FGF22 thermal shift, SYPRO orange fluorescence; percent of sucrose octasulfate shift, DMSO zero; calls only at 9.99 µM; 1.5% of 340,000 active; AID 651658, 2012;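 active = melting point raised past a set limit in the mean and every replicate; three in four hits are not shown here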
Target sequence (Q9HCT0 whole entry, looked up): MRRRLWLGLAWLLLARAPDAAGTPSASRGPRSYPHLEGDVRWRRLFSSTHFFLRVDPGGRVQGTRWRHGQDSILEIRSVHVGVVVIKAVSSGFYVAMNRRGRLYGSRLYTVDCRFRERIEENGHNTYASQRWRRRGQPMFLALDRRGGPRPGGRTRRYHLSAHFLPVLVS
Beta2AR agonist = beta2AR agonists driving receptor internalization, primary screen, cell-based, FAP fluorogen, flow cytometry | 0.43% of 340,000 active | response, % (test concentration not listed) | Am2.2-beta2AR cells; reference of the scale not given here | Beta-2 adrenergic receptor (Homo sapiens), P07550;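 active = response above a set limit, near 3 SD of response in nonfluorescent compounds, cut at about 42% in these data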;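 note: stock transfer was 100 nL into about 11 µL; a reference agonist was the positive control; negative values mostly stem from fluorescent compounds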
Target sequence (P07550 whole entry, looked up): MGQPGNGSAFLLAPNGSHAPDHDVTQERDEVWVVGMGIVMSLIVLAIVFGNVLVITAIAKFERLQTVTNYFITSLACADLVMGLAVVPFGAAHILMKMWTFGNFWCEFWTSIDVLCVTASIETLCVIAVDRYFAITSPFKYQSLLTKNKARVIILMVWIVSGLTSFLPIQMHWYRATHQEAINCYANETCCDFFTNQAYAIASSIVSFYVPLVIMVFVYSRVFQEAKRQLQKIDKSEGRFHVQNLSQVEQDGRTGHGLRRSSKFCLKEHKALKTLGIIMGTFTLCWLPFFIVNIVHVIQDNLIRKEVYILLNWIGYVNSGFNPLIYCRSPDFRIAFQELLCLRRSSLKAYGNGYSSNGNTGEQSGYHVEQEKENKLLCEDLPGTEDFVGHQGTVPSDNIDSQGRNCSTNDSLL
HNF4A DNA FP = change in binding of human HNF4A to DNA, primary screen, biochemical, fluorescence polarization, FITC-DNA | Hepatocyte nuclear factor 4-alpha (Homo sapiens), P41235 | 1 h | activity change, % at 10 µM | 0.3% of 360,000 active; in the data active = activity change above about 30%, passing the limit was not always enough;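 note: controls were the assay level and a saturating level of protein; the project sought stronger binding though the title names inhibitors; some compounds called inactive have numbers as strong as hits; positive values seem to mean higher polarization but the record does not say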
Target sequence (P41235 whole entry, looked up): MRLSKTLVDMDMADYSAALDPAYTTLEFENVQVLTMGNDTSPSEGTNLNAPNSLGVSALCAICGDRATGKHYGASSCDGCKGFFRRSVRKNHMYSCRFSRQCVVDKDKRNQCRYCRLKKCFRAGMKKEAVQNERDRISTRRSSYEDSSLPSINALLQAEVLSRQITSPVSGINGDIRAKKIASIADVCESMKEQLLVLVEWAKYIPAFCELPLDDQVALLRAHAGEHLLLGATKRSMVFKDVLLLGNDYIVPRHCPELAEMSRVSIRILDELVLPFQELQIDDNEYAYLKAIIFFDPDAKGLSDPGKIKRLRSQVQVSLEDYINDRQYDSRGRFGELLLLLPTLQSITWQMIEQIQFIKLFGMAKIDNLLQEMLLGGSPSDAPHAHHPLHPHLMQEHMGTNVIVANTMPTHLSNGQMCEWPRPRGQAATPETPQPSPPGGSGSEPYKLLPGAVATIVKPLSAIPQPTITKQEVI
Ecoli rRNA inh OD600 = also measured in Ecoli rRNA inh; calls as there; OD600 change, %; measured here: OD600 growth;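 optical density of the mix in the first replicate; 0 = DMSO median and -100 = no signal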
Ecoli rRNA inh RFP = also measured in Ecoli rRNA inh; calls as there; RFP signal change, %; measured here: RFP humanized mutant strains;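 first replicate; 0 = DMSO median and -100 = no signal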
* marks the source's active call; other numbers are inactive results; i = inactive; . = not tested or not shown.

Sequence of screens: ALR inh	UCH37 DUB inh	Ecoli rRNA inh	Ecoli rRNA inh OD600	Ecoli rRNA inh RFP	Ecoli growth	FGF22 binding	Beta2AR agonist	HNF4A DNA FP
- CSCC[C@H](NS(=O)(=O)c1ccc(C)cc1)C(=O)N1CCC(C(=O)N[C@@H](C)C(=O)O)CC1
    .	2.5	.	.	.	0.71	i	8	-4.5
- CCOc1ccc(C2CC(c3ccc(OC)cc3)n3ncnc3N2)cc1 (stereo unspecified)
    -15	-0.7	-4	-18	2.1	0.71	i	-1	4.6
- COC(=O)N/N=C/c1cccc(OC(=O)c2ccc3c(c2)OCO3)c1
    .	.	-2	0	2.2	.	i	-3	-3.5
- O[C@@H]1CN(C2CCCCC2)CC[C@H]1N1CCN(CCc2ccccc2)CC1
    -11	-1.5	.	.	.	0.7	.	-7	2.7
- CCN(CC)c1nc(Oc2ccc(C(=O)OC)cc2)nc(N2CCOCC2)n1
    -8	2.4	-16*	-12*	6.4*	0.66	i	-15	-2.8
- CC1(C)Cc2c(sc(NC(=O)C(=O)N3CCCC3)c2C#N)CO1
    -1	9.3	3	4	-0.9	0.7	i	1	-0.5
- COC1CCCN(C(=O)c2cccc(OC3CCN(S(=O)(=O)N(C)C)CC3)c2)C1 (stereo unspecified)
    0	1.3	1	4	0.2	0.67	i	-5	2.7
- COc1ccc2c(c1)CCc1c(C(=O)NCc3ccc(F)cc3)noc1-2
    .	4.6	1	22	-2.8	0.69	i	-5	-1.2
- COc1ccc(Cc2noc(-c3ccccc3)n2)cc1OC
    -5	0.6	-7	-14	-2.9	0.67	i	-8	2.0
- O=C(CCSc1nnnn1-c1ccccc1)N1CCOCC1
    -3	6.3	.	.	.	0.71	.	4	2.5
- COc1cc(OC)c(OC)cc1CNC(=O)c1cc(=O)[nH]c2ccccc12
    -3	1.6	-3	4	-4.0	0.67	i	-1	-6.1
- CC(=O)c1c(COC(=O)c2ccccc2Cl)nc2ccccc2[n+]1[O-]
    .	4.0	-35*	-26*	2.0*	0.62	i	-1	2.1
- CCOC(=O)/C(C#N)=C/C1=C(N2CCCC2)CC(C)(CC)OC1 (stereo unspecified)
    21	-0.3	.	.	.	0.73	.	-10	-0.9
- Cc1cc(-c2ccccc2)nc(N/N=C/c2ccco2)n1
    48	.	.	.	.	.	.	-13	-4.1
- Cc1ccc(SCc2cc(=O)[nH]c(/N=C(\N)Nc3ccccc3Sc3ccccc3)n2)cc1
    -3	.	.	.	.	.	.	2	-1.8
- Cc1cc(C)cc(NC(=S)NCc2cccn2C)c1
    -18	-0.4	3	9	-2.0	0.72	i	11	0.5
- N[C@@H](Cc1cnc[nH]1)C(=O)Nc1ccc2ccccc2c1
    .	.	2	-5	-1.6	.	i	0	2.7
- COc1ccc(-c2cc(C(F)F)n3ncc(C(=O)N4CCCCC4)c3n2)cc1
    -8	-114	.	.	.	0.71	.	1	-0.7
- CC(=O)Nc1ccc(Nc2nc3c(S(=O)(=O)c4ccc(C)c(C)c4)nnn3c3ccccc23)cc1
    -3	-6.3	-2	4	-0.9	0.72	i	4	1.1
- COc1ccc(NC(=O)COC(=O)Cn2c(C)nc3ccccc32)cc1OC
    -13	2.6	.	.	.	0.72	.	-6	0.3

The last 4 records of the section above come first, to join the parts:
Sequence of screens: ALR inh	UCH37 DUB inh	Ecoli rRNA inh	Ecoli rRNA inh OD600	Ecoli rRNA inh RFP	Ecoli growth	FGF22 binding	Beta2AR agonist	HNF4A DNA FP
- N[C@@H](Cc1cnc[nH]1)C(=O)Nc1ccc2ccccc2c1
    .	.	2	-5	-1.6	.	i	0	2.7
- COc1ccc(-c2cc(C(F)F)n3ncc(C(=O)N4CCCCC4)c3n2)cc1
    -8	-114	.	.	.	0.71	.	1	-0.7
- CC(=O)Nc1ccc(Nc2nc3c(S(=O)(=O)c4ccc(C)c(C)c4)nnn3c3ccccc23)cc1
    -3	-6.3	-2	4	-0.9	0.72	i	4	1.1
- COc1ccc(NC(=O)COC(=O)Cn2c(C)nc3ccccc32)cc1OC
    -13	2.6	.	.	.	0.72	.	-6	0.3
- CC(C)(C)P(=O)(CO)c1ccccc1 (stereo unspecified)
    -2	3.6	.	.	.	0.7	.	0	0.1
- CCCc1nnc(SCC(=O)N2CCCCC2)n1CC1CCCO1 (stereo unspecified)
    .	-0.6	.	.	.	0.71	.	-6	-20
- Cc1cc(C)cc(C(=O)n2cnnc2N)c1
    8	1.5	.	.	.	0.68	.	6	4.2
- Cc1cc(C)n2nnnc2n1
    -14	4.8	7	5	-2.1	0.67	i	6	1.5
- NS(=O)(=O)c1ccc(CCNC(=O)c2ccc(S(=O)(=O)N3CCCCC3)cc2)cc1
    7	2.0	.	.	.	0.72	.	3	0.9
- Cc1c(C)n(Cc2ccccc2)c2ncnc(NCCO)c12
    10	1.3	-7	1	-5.5	0.66	i	-7	-0.6
- O=C(C1CCC(=O)N1C1CCCCC1)N1CCN(c2ccc(F)cc2)CC1 (stereo unspecified)
    10	1.7	2	-4	-6.6	0.68	i	5	-1.5
- Cc1cc(=O)[nH]c2c1cnn2C(C)c1ccccc1 (stereo unspecified)
    -1	-0.1	5	6	-1.6	0.68	i	-4	3.4
- CSCCC(NC(=O)c1cncc(Br)c1)C(=O)O (stereo unspecified)
    -5	-0.8	12	-2	-5.5	0.71	i	7	-0.4
- COc1cccc2cc(C(C)N(CCCN3CCOCC3)C(=O)Nc3ccc(Cl)cc3)oc12 (stereo unspecified)
    -19	3.2	.	.	.	0.69	.	-8	1.3
- COc1ccccc1CC(=O)NCCN1CCCCC1
    -5	2.1	25	17	3.2	0.63	i	2	-0.5
- Nc1nnc(Sc2ccc(Cl)cc2[N+](=O)[O-])s1
    -9	2.6	-5	0	-2.7	0.69	i	0	-2.4
- CCOc1ccc(S(=O)(=O)Nc2ccc(C(=O)NCC(c3ccco3)N(C)C)cc2)cc1 (stereo unspecified)
    -4	-1.7	-12	-4	5.2	0.7	i	-3	-2.1
- COc1ccc(-c2nnc(SCC(=O)N(Cc3ccccc3)C(C)(C)C)o2)cc1OC
    -28	4.5	.	.	.	0.76	.	2	-0.4
- O=C(Nc1ccc(NS(=O)(=O)c2ccccc2)cc1)c1ccccc1Cl
    .	3.5	-32	-26	-0.7	0.69	i	4	0.3
- CCCC(=O)NC(=S)Nc1cccc(NC(=O)c2ccccc2)c1
    6	-0.8	12	0	-1.0	0.65	i	-4	0.7
- COCCCn1cc(CN2CC(N3CCCCC3)CS2(=O)=O)nn1 (stereo unspecified)
    .	.	8	11	-5.8	.	i	.	-3.0
- CS(=O)(=O)Nc1ccc(C2=NN(C(=O)C3CCCCC3)C(c3cccs3)C2)cc1 (stereo unspecified)
    -9	-132	.	.	.	0.63	.	5	1.6
- CN(C)S(=O)(=O)c1cccc(NC(=S)NCc2ccc3c(c2)OCO3)c1
    -3	2.3	-18	-18	-2.2	0.69	i	-6	-5.2
- CC(Cc1c[nH]c2ccccc12)C(=O)N1CCN(c2ccccc2F)CC1 (stereo unspecified)
    .	1.4	-14	-47	2.3	0.67	i	2	-4.6
- COC(=O)c1[nH]c2ccc(F)cc2c1NS(=O)(=O)c1ccc(F)c(C)c1
    63	4.1	.	.	.	0.66	.	-3	0.0
- CC(CCc1ccccc1)NC(=O)c1ccc(Br)cc1 (stereo unspecified)
    8	5.7	14	13	3.4	0.64	i	-11	1.0
- CCCOc1ccc(C(=O)NCc2ccco2)cc1
    -1	0.4	.	.	.	0.71	.	-2	-1.9
- COc1ccc(CCNC(=O)C/C(C)=N/NC(=O)C(c2ccccc2)c2ccccc2)cc1OC
    1	.	7	5	0.6	.	i	-4	-0.8
- COc1c(Cl)cccc1-c1cn2ccc(C)cc2n1
    28	-58	-3	1	2.2	0.68	i	-8	3.4
- O=C(NCCc1ccccc1)c1ccc2c(c1)S(=O)(=O)N=C1CCCCCN12
    -2	0.2	-2	1	-4.8	0.67	i	-4	-11
- CC1CCCC(C)N1C(=O)COC(=O)c1ccccc1O (stereo unspecified)
    4	0.1	0	-6	1.6	0.64	i	-3	2.4
- CNC(=S)N1N=C(c2ccc(Br)cc2)CC1c1ccc(Br)cc1 (stereo unspecified)
    -1	6.8	.	.	.	0.7	.	-2	-0.2
- O=C(NNc1c(Cl)cccc1Cl)C1CCC1
    5	3.4	16	13	1.5	0.7	i	-2	1.7
- CC(C)Cn1c(=O)c2ccccc2n2c(CCC(=O)NC3CCN(Cc4ccccc4)CC3)nnc12
    -4	.	-3	-7	-1.5	.	i	-16	0.5
- Cn1c(-c2ccccc2[N+](=O)[O-])[n+](C)c2ccccc21
    -10	1.0	16	12	1.5	0.67	i	2	1.4
- Cc1cccc2cc(C#N)c(SCC(=O)NCc3cccs3)nc12
    6	0.0	20	5	0.5	0.7	i	-7	2.0
- COc1cccc(N2C(=O)C3C(C2=O)C2C=CC3C23CC3)c1 (stereo unspecified)
    -4	-0.6	.	.	.	0.77	.	5	-3.0
- CCCCN(C(=O)c1cccc(S(=O)(=O)N(CC)c2ccccc2)c1)c1c(N)n(CCCC)c(=O)[nH]c1=O
    .	1.2	1	8	-2.1	0.71	i	-7	1.5
- O=C1NC(=O)C2C1C(c1cccs1)NN2Cc1ccccc1 (stereo unspecified)
    98*	-10	-2	-7	-0.8	0.66	i	2	-1.1
- CC1(C)CN(c2cccc(Br)c2)C1=O
    -5	.	15	8	2.8	.	i	-3	0.5
- O=C1c2ccccc2C(=O)N1CSc1nnnn1-c1ccccc1
    19	-1.2	.	.	.	0.67	.	1	1.7
- CC1(C(=O)NS(=O)(=O)c2cccc(F)c2)CCN1C(=O)Cc1ccccc1Cl (stereo unspecified)
    .	.	13	13	2.1	.	i	.	0.7
- CCOc1ccc(N(CC(=O)N/N=C/c2cccnc2)S(C)(=O)=O)cc1
    -13	.	6	5	-0.8	.	i	-10	2.1
- CCc1nc2ccc(C(=O)Nc3ccc(Cl)c(Cl)c3)cn2c1N(C)Cc1ccc(OC)cc1
    .	.	2	-4	3.6	.	i	.	-0.7
- Cc1ccc(C(=O)NC2CCN(S(=O)(=O)c3ccc(F)cc3)CC2)cc1
    .	0.5	3	6	0.0	0.75	i	-8	2.6
- COc1ccccc1NS(=O)(=O)c1cc(NC(=O)CCNC(C)=O)ccc1N1CCCCC1
    -3	-0.2	-20	-41	-2.7	0.61	i	13	-1.0
- O=C(c1ccc(=O)[nH]c1)N1CCN(S(=O)(=O)c2ccccc2)CC1
    -18	-0.5	6	10	-1.2	0.71	i	0	1.2
- COc1cc(S(=O)(=O)NCC(c2ccco2)N2CCCCC2)ccc1NC(C)=O (stereo unspecified)
    -14	1.2	7	8	-2.6	0.63	i	-2	-0.4
- Cc1cc(C)c(S(=O)(=O)NCc2ccc3c(c2)OCO3)cc1C
    -2	4.9	-27	-25	-7.1	0.71	i	2	3.0
- Cn1c(SCC(=O)c2ccc3c(c2)OCO3)nnc1-c1ccccn1
    40	3.2	.	.	.	0.75	.	-6	1.6

These rows are one share of the data (hit frequency here may not be typical).
